PrP 5UTR inh = suppresses PrP 5' UTR mRNA reporter expression; cell-based PrP 5' UTR mRNA reporter, plate reader; inhibition, % (test concentration not listed); actives 0.35% (n = 340,000); AID 488862;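 active = every replicate at 50% or more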;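 also: 0 = median of the neutral control wells; tested in H4 reporter cells; numbers are from one replicate; inactives centre near -14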
Autofluor counter = compound fluorescence in toxin protease inhibitor counterscreen | AID 624483 | actives 3.1% (n = 360,000) | compound autofluorescence counterscreen, microsphere flow cytometry; hits give high values | fluorescence intensity (no concentration beside the values);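 active = at least 3 SD above the mean of all compounds, about 16000 in these data; inconclusive = too few beads counted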;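 also: 100 nL of 1 mM stock went into each well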
Sa RN4220 lethal = S. aureus RN4220 growth inhibition. OD600, 16 h. inhibition, % (no concentration beside the values). actives 0.33% (n = 330,000);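 active = z-score of -3 or lower and OD600 up to 0.18 on both plates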;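 also: plate controls were untreated cells for no effect and reference antibiotic for full effect; stock transfer was 100 nL into about 80 µL; one replicate is shown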
Mtb hypoxia inh = inhibitors of hypoxia-regulated fluorescent reporter in Mycobacterium tuberculosis. M. tuberculosis hypoxia-regulated fluorescent reporter, fluorescence. fluorescence inhibition, % (concentration not given with the values). actives 0.1% (n = 300,000). AID 1159583;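 active = 35 to 45% if threefold the growth effect, above 45% if 1.5-fold the growth effect; inactive = the rest, general growth blockers included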;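 also: wells of about 50 µL received 100 nL stock; 0% = vehicle wells and 100% = reference inhibitor wells; whole bacteria with a GFP reporter of the hypoxia response; strong numbers were not always called active; many hits fall short of the cut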
BJeLR viability = BJeLR cell viability loss | BJeLR (HRASV12) viability, CellTiter-Glo ATP luminescence, 48 h; reference of the scale not given here | inhibition, % (no concentration beside the values) | actives 0.17% (n = 300,000) | AID 1554;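 active = replicate mean above 50%; inconclusive = above 50% but judged a plate artefact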;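 also: 50 nL library stock added to about 25 µL; numbers are from one replicate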
ugtP null kill = kills S. aureus RN4220 lacking UgtP. S. aureus RN4220 ugtP deletion, OD600 growth, 16 h; some inactives read as strong as hits. growth inhibition, % (test concentration not listed). actives 0.54% (n = 330,000). AID 1259309;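 active = z-score under -3 and OD600 up to 0.15 on both plates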;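 also: plate controls were untreated wells for no effect and antibiotic for full effect; wells of about 80 µL received 100 nL stock; the first replicate is given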
Mtb hypoxia inh growth = recorded beside Mtb hypoxia inh, whose call it bears; growth inhibition, %; measured here: M. tuberculosis growth (absorbance);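 0% = vehicle and 100% = reference antibiotic; read after six days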
The depositor's hits bear a star; ? = inconclusive; nt = no result given.

SMILES | PrP 5UTR inh | Autofluor counter | Sa RN4220 lethal | Mtb hypoxia inh | Mtb hypoxia inh growth | BJeLR viability | ugtP null kill
O=C(C[n+]1cc(Br)cc2ccccc21)c1ccc(Br)cc1 | -20 | 6312 | -12 | 3 | -8 | 2 | 0
CSCCC(NC(=O)c1ccccc1Br)C(=O)NCC(C)(C)N1CCOCC1 (configuration not stated) | -16 | 5535 | 3.3 | 13 | -1 | -10 | 8
CC1(C)Cc2c(c(-c3ccco3)nc3sc4c(NCC5CCCO5)ncnc4c23)CO1 (configuration not stated) | 2 | 2274 | 4.3 | 4 | 3 | -3 | -14
CCNc1nc(NCC)n2c(SC(C(=O)Nc3cc(C)ccc3OC)c3ccccc3)nnc2n1 (configuration not stated) | -29 | 9502 | 4.1 | 5 | 5 | -9 | -7
COc1ccc(C(=O)COC(=O)c2cccnc2Cl)c(OC)c1 | -56 | 2609 | 4.4 | 10 | 6 | 9 | 0
O=C(NC1CCCCC1)c1ccc(S(=O)(=O)N2CCCC2)cc1 | 13 | 16946* | -1.6 | 1 | 2 | -21 | 1
Cn1ccs/c1=N\S(=O)(=O)c1ccc(C(C)(C)C)cc1 | -14 | 4166 | nt | nt | nt | 0 | nt
Cc1ccc(-c2[nH]ncc2/C=N/n2c(COc3ccccc3C)nc3ccccc3c2=O)cc1 | -14 | 9204 | nt | nt | nt | 2 | nt
Cn1c(=O)c2c(ncn2CC(=O)Nc2ccccc2Sc2ccccc2)n(C)c1=O | -22 | 10994 | 3.0 | 6 | 8 | 6 | 2
Cc1c(NC(=O)C2CCCCC2)cc(C(=O)N2CCOCC2)cc1[N+](=O)[O-] | -14 | 4258 | 6.4 | 4 | 5 | -12 | 2
COc1cccc2c1OCC/C2=N\NC(=O)COc1ccc(C)cc1 | -11 | 2126 | nt | nt | nt | -1 | nt
COCCNC(=O)COc1ccc(Oc2ccccc2)cc1 | -20 | 2915 | 1.3 | -2 | 1 | -14 | 2
CCN1CCCC(NC(=O)c2cc([N+](=O)[O-])ccc2OC)C1 (configuration not stated) | -13 | 7081 | nt | nt | nt | 15 | nt
Cc1cccc2[nH]c3c(=O)n(CCN4CCNCC4)cnc3c12 | 3 | 3769 | 0.7 | nt | nt | 3 | 10
Cc1cccnc1-n1c(CN2C(=O)c3ccccc3C2=O)nc2ccccc2c1=O | -18 | 4757 | 2.5 | nt | nt | -5 | 9

Nothing new here: an excerpt of the list.
SMILES | PrP 5UTR inh | Autofluor counter | Sa RN4220 lethal | Mtb hypoxia inh | Mtb hypoxia inh growth | BJeLR viability | ugtP null kill
COCCNC(=O)COc1ccc(Oc2ccccc2)cc1 | -20 | 2915 | 1.3 | -2 | 1 | -14 | 2
CCN1CCCC(NC(=O)c2cc([N+](=O)[O-])ccc2OC)C1 (configuration not stated) | -13 | 7081 | nt | nt | nt | 15 | nt
Cc1cccc2[nH]c3c(=O)n(CCN4CCNCC4)cnc3c12 | 3 | 3769 | 0.7 | nt | nt | 3 | 10
Cc1cccnc1-n1c(CN2C(=O)c3ccccc3C2=O)nc2ccccc2c1=O | -18 | 4757 | 2.5 | nt | nt | -5 | 9

Continuation.
SMILES | PrP 5UTR inh | Autofluor counter | Sa RN4220 lethal | Mtb hypoxia inh | Mtb hypoxia inh growth | BJeLR viability | ugtP null kill
Cc1ccc(C(=O)N2CCN(c3ncccn3)CC2)cc1 | nt | 3550 | 1.4 | 3 | -3 | -1 | -1
O=C(CSc1ccc2ccccc2c1)Nc1ccc(S(=O)(=O)Nc2nccs2)cc1 | -7 | 2464 | -4.9 | 14 | 8 | 3 | 7
CC(=O)c1cc(-c2ccccc2)n(CC(=O)N2CCCC2)c1C | -3 | 2221 | 3.7 | 16 | 1 | -1 | -1
CC(=O)c1c(C)oc2ccc(N(C(C)=O)S(=O)(=O)c3ccc(Cl)c([N+](=O)[O-])c3)cc12 | -14 | 4988 | -6.4 | nt | nt | 3 | 3
CN1C(=O)C2C(C1=O)C(c1ccc(Br)cc1)N1C(=O)c3ccccc3NC(=O)C21 (configuration not stated) | nt | nt | 2.7 | 1 | 7 | nt | -13
Cc1ccc(C(c2nnnn2CCc2ccccc2)N2CCC(C)CC2)cc1 (configuration not stated) | -3 | 2596 | 5.0 | nt | nt | 11 | 8
CC1(C(O)(C#CC[N+]2(C)CCCCC2)c2ccccc2)CCCC1 (configuration not stated) | -7 | 3405 | 1.9 | 0 | 4 | -3 | 6
COC(=O)c1ccc(COC(=O)CCNS(=O)(=O)c2ccc(C)c(C)c2)cc1 | -12 | nt | 2.7 | 10 | 9 | nt | 0
CC(C)=CC(=O)N1CC[C@@H](N2CCN(c3ccccc3F)CC2)[C@H](O)C1 | -17 | 4689 | 1.4 | 9 | -1 | 3 | 3
OCc1ccccc1CNCc1ccccc1 | -35 | 9912 | 0.2 | 7 | 7 | -16 | 5
COc1ccc(C(C)=O)cc1COC(=O)Cc1n[nH]c(=O)c2ccccc12 | -1 | ? | -0.1 | -9 | -9 | 0 | 0
Cc1[nH]nc(SCC(=O)NC(C)c2ccccc2)c1[N+](=O)[O-] (configuration not stated) | -22 | 1949 | 3.1 | 3 | 11 | 15 | -7
CCC(C)NS(=O)(=O)c1ccc(NC(=O)c2ccc([N+](=O)[O-])cc2Cl)cc1 (configuration not stated) | -11 | 2084 | 11 | -12 | 3 | 11 | -3
COc1cccc(CN(C)C(=O)C(Cc2ccccc2)NC(=O)c2ccccc2)c1OC (configuration not stated) | -15 | 6843 | 3.7 | 6 | 2 | -1 | 6
CC1CN(C2CCN(C(=O)COc3ccc(Cl)cc3)CC2)CC(C)O1 (configuration not stated) | -17 | 2725 | 2.8 | nt | nt | 3 | -1
O=C(OCC(=O)N1CCN(c2ccccc2)CC1)c1ccc2ncsc2c1 | -9 | 3413 | 9.3 | nt | nt | nt | -1
COc1ccc(C(=O)NNC(=O)CCC(=O)Nc2cc(C)on2)cc1 | -25 | 2292 | 4.3 | -5 | 6 | 3 | 1
O=C(N[C@@H](Cc1ccccc1)c1nc2ccccc2[nH]1)c1cc([N+](=O)[O-])ccc1Cl | -6 | 2027 | 10 | 1 | 9 | -20 | 2
Cc1ccc(NCC(=O)NN=Cc2ccc(-c3cccc(C(F)(F)F)c3)o2)cc1 | nt | nt | -9.1 | 4 | 6 | nt | -3
Cc1ccc(C)c(-n2nnnc2Sc2nc([N+](=O)[O-])nn2C)c1 | -8 | 2488 | -4.4 | 6 | 5 | 4 | 23
COc1cc(CC(=O)OCC(=O)NC2CC2)cc(OC)c1OC | -29 | 4282 | 2.0 | 6 | 1 | -1 | 1
Cc1nn2c(C)c(C(=O)Nc3ccccc3)cnc2c1C#N | -22 | 6981 | -0.6 | 7 | 7 | 1 | -1
O=[N+]([O-])c1ccc(N2CCC(O)CC2)nc1 | -7 | 2246 | 9.2 | -9 | -24 | 8 | 0
C=CCn1c(SCC(N)=O)nnc1-c1cnccn1 | 1 | 4578 | 1.4 | 1 | 4 | 0 | -1
CCOC(=O)N1CCC(Nc2ncnc3c2cnn3-c2ccc(Cl)cc2)CC1 | -2 | 10696 | 2.1 | -1 | 1 | 8 | 5
COCCOC(=O)c1sc(=S)n(CCOC)c1N | 5 | 23533* | -0.4 | -4 | -16 | 12 | 3
O=C1CN(C(=O)c2ccccc2)c2ccccc2N1 | -4 | 3334 | 7.8 | 8 | 5 | 8 | 8
CCOC(=O)C1CCN(Cc2ccc(OCc3ccccc3)c(OC)c2)CC1 | -11 | 3639 | 2.5 | 8 | 7 | -2 | 4
Cc1cc(C)c2nc(N3C(=O)C(O)=C(C(=O)c4ccco4)C3c3cccc(O)c3)sc2c1 (configuration not stated) | 0 | 4536 | 54 | 1 | -1 | nt | 88*
COc1ccccc1CN1CC(C(=O)NCc2nccn2C)CCC1=O (configuration not stated) | -1 | 6627 | 3.0 | 9 | -2 | -4 | 6
CC(CCc1ccccc1)NC(=O)C1CCN(S(=O)(=O)N2CCCCC2)CC1 (configuration not stated) | -26 | 9807 | 2.9 | 17 | 4 | -14 | 15
OC(CNCCc1ccc(C(F)(F)F)cc1)COc1ccc2ccccc2c1 (configuration not stated) | -30 | 2284 | 62 | -10 | 9 | -9 | -4
Cc1ccccc1-c1nnn(Cc2cccc(S(=O)(=O)N3CCOCC3)c2)n1 | -7 | 8721 | 1.7 | -2 | 6 | nt | 1
CCN(c1ccccc1)S(=O)(=O)c1ccc(C(=O)NCC(=O)Nc2ccc(F)c(F)c2F)cc1 | 9 | 9581 | -0.1 | -5 | -6 | nt | -10
Cc1c(C(=O)N2CCCCCC2)oc2ccccc12 | -9 | 11141 | 5.4 | 15 | 13 | -19 | 7
Cc1ccc([N+](=O)[O-])cc1NC(=O)CSc1nncc2ccccc12 | -1 | 4466 | -2.7 | -11 | 2 | 2 | -10
O=C1Cc2cc(NS(=O)(=O)c3ccc(F)cc3)cc3c2N1CCC3 | -16 | 6124 | 4.0 | -1 | 2 | -2 | -64
O=C(O)CN(CCc1ccccc1)S(=O)(=O)c1ccccc1 | -16 | 3061 | 2.0 | -3 | -6 | -5 | 4
Cc1ccc(C(=O)CN(CCC(=O)O)S(=O)(=O)c2ccc([N+](=O)[O-])cc2)cc1 | 1 | 3986 | 2.5 | 3 | 10 | nt | 2
c1ccc2sc(NC3=NCN(CC4CCCO4)CN3)nc2c1 (configuration not stated) | -46 | 4226 | 6.1 | 8 | 1 | 0 | -2
Cc1c(C(=O)C(=O)N2CCN(C)CC2)c2ccccc2n1C | -15 | 3787 | 4.8 | 1 | 4 | -7 | 11
COc1ccccc1C(=O)NC(=O)COC(=O)c1nccnc1N | -10 | 3579 | 3.2 | 3 | 1 | nt | 4
CN(C)S(=O)(=O)c1ccc(NC=C(C#N)C#N)cc1 | -17 | 4898 | -1.2 | 4 | 8 | -5 | 4
Cc1cccc(NC(=O)C2CCCN2C(=O)OCC(C)C)c1 (configuration not stated) | -24 | 9794 | 6.1 | 5 | 1 | nt | 1
COc1cc(/C=C/C(=O)OCC(=O)N(C)CC(=O)Nc2ccc(F)cc2)ccc1OC(F)F | 7 | 6447 | 7.1 | -6 | -7 | nt | 12
O=C(NCCc1ccccc1)c1nc(CS(=O)(=O)c2ccc(Cl)cc2)no1 | 5 | 6163 | 1.7 | 6 | 4 | 1 | 3
NC(=O)c1cccnc1Oc1ccccc1 | -12 | 6204 | 0.3 | -10 | 1 | 2 | 0
N#CCSc1nnc(-c2ccc(S(=O)(=O)N3CCOCC3)cc2)n1CC1CCCO1 (configuration not stated) | -6 | 22267* | 0.3 | -8 | -6 | -1 | -4
CCOc1ccc(C(NC(=O)c2ccco2)c2ccc(OC)c(OC)c2)cc1 (configuration not stated) | -15 | 10443 | 2.2 | 7 | 9 | -1 | 6
CCCCOc1ccc(C2=CSC3=NCCN23)cc1[N+](=O)[O-] | -27 | 3372 | -0.5 | 7 | 4 | 0 | 3
COC(=O)[C@H](CCSC)NC(=O)NCc1ccc(S(N)(=O)=O)cc1 | -19 | 11406 | 2.4 | 3 | 10 | -4 | -1
CC(=O)N1CCCc2cc(S(=O)(=O)Nc3ccc(C)cc3C)ccc21 | -35 | 2582 | 18 | 1 | 5 | -2 | 7
CC(NS(=O)(=O)c1ccccc1)C(c1cccs1)N1CCN(c2ccccc2)CC1 (configuration not stated) | 4 | 17711* | 9.4 | 2 | -1 | -13 | 24
O=C(c1ccccc1)c1ccc(C(=O)N2CCN(c3ccc(O)cc3)CC2)cc1 | -17 | nt | 6.3 | 12 | 3 | nt | 0
Cc1ccccc1C=NNC(=O)c1ccc(Cn2cccn2)o1 | nt | nt | 9.1 | 3 | 2 | nt | -1
CN(CCc1ccccn1)C(=O)c1cccnc1Oc1ccccc1 | -22 | 4405 | 1.7 | -1 | 8 | -1 | 7
O=C(O)c1ccccc1C(=O)Nc1ccc(S(=O)(=O)Nc2nccs2)cc1 | -3 | 4174 | 2.2 | 7 | 14 | nt | -6
O=C(CNS(=O)(=O)c1ccccc1)NN=Cc1ccncc1 | nt | nt | 3.2 | -2 | -3 | nt | 5
C=CCN1C(=O)c2ccc(C(=O)N(CC)CC(=O)Nc3ccc(OC)cc3)cc2C1=O | -17 | 5871 | 3.6 | 4 | -1 | -3 | 5
